Compound activity: PubChem, several laboratories
FGF22 binding = binders of recombinant human FGF22 by thermal shift | SYPRO orange fluorescence; percent of sucrose octasulfate shift, DMSO zero | calls only at 9.99 µM | hit rate 1.5% among 340,000 | AID 651658;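 active = melting point raised past a set limit in the mean and every replicate; inconclusive = no clear call; three in four hits are not shown here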
MLL AF4-AF9 inh = inhibitors of human MLL-AF4/AF9 interaction; AlphaScreen, biotin-AF4 peptide binding to FLAG-AF9; inhibition, % at 10 µM; hit rate 0.47% among 350,000;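 active = every replicate reaching a set inhibition limit, whatever the replicate mean, cut at about 25% in these data; inconclusive = mean inhibition reaches that limit but some replicates miss it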;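 note: 0% = plate neutral control median and 100% = total signal loss; the record names both 10 and 1 µM as test concentration; the first replicate is given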
Target sequence (P42568 whole entry, looked up): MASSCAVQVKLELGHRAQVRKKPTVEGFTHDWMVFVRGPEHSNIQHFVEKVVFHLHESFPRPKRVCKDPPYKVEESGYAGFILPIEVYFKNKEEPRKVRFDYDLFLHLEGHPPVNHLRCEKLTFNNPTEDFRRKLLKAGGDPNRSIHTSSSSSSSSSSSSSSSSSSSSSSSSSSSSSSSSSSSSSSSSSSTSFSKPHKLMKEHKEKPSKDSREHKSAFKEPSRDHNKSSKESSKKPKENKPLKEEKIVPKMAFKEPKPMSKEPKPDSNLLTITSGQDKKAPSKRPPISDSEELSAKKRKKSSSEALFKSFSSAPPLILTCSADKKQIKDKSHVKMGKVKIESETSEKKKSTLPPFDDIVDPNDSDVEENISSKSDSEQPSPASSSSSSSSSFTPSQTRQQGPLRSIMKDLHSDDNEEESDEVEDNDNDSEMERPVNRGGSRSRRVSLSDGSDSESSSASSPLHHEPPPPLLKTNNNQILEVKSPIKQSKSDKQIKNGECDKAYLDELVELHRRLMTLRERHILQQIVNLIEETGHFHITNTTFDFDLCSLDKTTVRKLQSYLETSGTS
E coli growth = blocks Escherichia coli growth; hit rate 0.21% among 330,000; OD600 absorbance (test concentration not listed); OD600, 23 h; active compounds read low; AID 1053175;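 active = OD600 absorbance below the run mean of sample wells minus 3.6 SD, in any replicate, cut at about 0.56 in these data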;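 note: stock transfer was 300 nL into about 60 µL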
RanGTP-Impb inh = inhibitors of RanGTP-importin-beta interaction, primary screen, biochemical, FRET, CFP-Ran, YFP-importin-beta, homogeneous; hit rate 1.1% among 300,000; inhibition, % (concentration not given with the values); cell-free CFP-Ran/YFP-importin-beta FRET ratio;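 active = most replicates above 15%; inconclusive = exactly half above 15%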;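 note: 0% = DMSO wells and 100% = Ran loaded with GDP instead of GTP; wells of about 40 µL received 100 nL stock; the first replicate is given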
HNF4A DNA FP = change in binding of human HNF4 alpha to DNA | activity change, % at 10 µM | HNF4a-FITC DNA binding, fluorescence polarization, 1 h | hit rate 0.3% among 360,000; in the data active = activity change above about 30%, passing the limit was not always enough;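 note: controls were the assay level and a saturating level of protein; the project sought stronger binding though the title names inhibitors; some compounds called inactive have numbers as strong as hits; positive values seem to mean higher polarization but the record does not say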
Target sequence (P41235 whole entry, looked up): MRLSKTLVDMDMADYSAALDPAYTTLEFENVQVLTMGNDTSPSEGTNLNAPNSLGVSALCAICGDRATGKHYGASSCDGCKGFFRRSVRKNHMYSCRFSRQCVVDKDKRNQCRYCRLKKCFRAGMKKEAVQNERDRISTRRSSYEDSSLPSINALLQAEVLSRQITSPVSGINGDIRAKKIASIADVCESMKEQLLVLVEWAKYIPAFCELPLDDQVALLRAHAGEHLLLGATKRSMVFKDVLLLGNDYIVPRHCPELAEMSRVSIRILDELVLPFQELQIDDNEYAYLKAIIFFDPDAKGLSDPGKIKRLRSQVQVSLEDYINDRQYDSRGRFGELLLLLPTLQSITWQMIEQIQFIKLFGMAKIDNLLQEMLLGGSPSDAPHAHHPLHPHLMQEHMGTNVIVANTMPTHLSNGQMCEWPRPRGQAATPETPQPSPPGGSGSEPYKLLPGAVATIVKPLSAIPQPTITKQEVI
Vif TR-FRET = HIV-1 Vif–A3G interaction blockers – biochemical, TR-FRET, GST-Vif 1-94, biotin-A3G peptide, dose response retest, primary screen (AID 1117319); TR-FRET GST-Vif / biotin-A3G peptide binding; higher % means a stronger effect; test concentration not given here; strong numbers were not always called active; inhibition, %, or IC50 in µM where a hit was titrated; hit rate 0.57% among 260,000;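 active = above the screen mean plus three standard deviations and confirmed in dose response; inconclusive = results disagree or hit not tested in dose response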;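 note: Vif residues 1-94 fused to GST binding biotinylated APOBEC3G peptide 110-148; 0% = full assay without inhibitor and 100% = GST in place of GST-Vif; retest series ran down from 100 µM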
UCH37 DUB inh = human UCH37 deubiquitinating enzyme inhibition; AID 588478; inhibition, % (test concentration not listed); hit rate 0.33% among 330,000; Q9Y5K5; purified proteasome/UCH37, Ub-AMC cleavage fluorescence;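 active = mean of two replicates above 20%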;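 note: 0% = compound-free wells with enzyme and 100% = wells lacking proteasome; stock transfer was 100 nL into about 20 µL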
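Reagent: Ub-AMC substrate; assay system: Proteasome-associated human UCH37 deubiquitinase; controls: no-proteasome and no-compound wells; read-out: % inhibition of Ub-AMC cleavage fluorescence; timing: 30 min preincubation with enzyme, 25 min cleavage at room temperature; signal: AMC fluorescence from Ub-AMC cleavage, excitation 355 nm, emission 460 nm; buffer or medium: Tris-HCl pH 7.4 plus ovalbumin, ATP-MgCl2, DTT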
Numbers without * were called inactive; i = inactive; ? = inconclusive; / = no result given; & = joins results of further samples.

Compound | FGF22 binding | Vif TR-FRET | HNF4A DNA FP | MLL AF4-AF9 inh | RanGTP-Impb inh | UCH37 DUB inh | E coli growth
CCN1CCN(S(=O)(=O)c2ccc(Cl)c(C(=O)Nc3ccccc3N3CCOCC3)c2)CC1 | i | 9% | -1.5 | 1.1 | 4.8 | 4.6 | 0.69
CCOC(=O)Cn1c(N2CCCCCC2)nc2c1c(=O)[nH]c(=O)n2C | / | 5% | 4.7 | / | 0.4 | 3.0 | 0.71
COc1ccc(Br)cc1S(=O)(=O)N1CC(C)OC(C)C1 (stereo unspecified) | / | 12% | 1.6 | / | -0.4 | 1.9 | 0.7
COc1cc(/C=N/NC(=O)c2ccccc2O)ccc1OC(=O)CC1SC(=O)NC1=O (stereo unspecified) | i | ? | 0.7 | -1.8 | 6.1 | / | /
Cc1cccc(NC2=NC(=S)N(c3ccc(C(=O)O)cc3)C23CCCCC3)c1 | / | 12% | 0.7 | / | 0.5 | 5.2 | 0.72
O=C(NCCC(c1ccccc1)c1ccccc1)c1ccc(Br)o1 | / | -1% | 5.7 | / | -1.4 | 2.9 | 0.73
Fc1cccc(CSc2nc3ccncc3[nH]2)c1 | i | -5% | 4.0 | -3.2 | -0.8 | 1.0 | 0.65
O=C(Cn1c2ccc(F)cc2c2nc3n(c(=O)c21)CCS3)Nc1ccccc1C(F)(F)F | i | ? | 3.0 | -3.6 | 0.5 | -15 | 0.73
O=C(CN(C(=O)Cn1nnc(-c2cccs2)n1)c1cnc2ccccc2c1)NCC1CCCO1 (stereo unspecified) | / | -2%&-3% | -0.1 | / | 4.3 | 2.1 | 0.69
COc1ccc(OC)c(NC(=O)COC(=O)/C=C/c2ccc(Cl)cc2)c1 | / | -9% | -0.3 | / | -1.5 | 1.5 | /
CCSC1(SCC)N=C(N)C2(C#N)C(c3ccccc3)NC(C)=C(C)C12C#N (stereo unspecified) | / | 0% | 1.1 | / | -2.8 | 0.2 | 0.76
CC1CCN(S(=O)(=O)c2cc(C(=O)Nc3ccccn3)ccc2Br)CC1 | i | -3% | 3.6 | 2.4 | -4.9 | -1.1 | 0.7
O=C(c1cccc(S(=O)(=O)N2CCOCC2)c1)N1CCCc2ccccc21 | / | -5% | 0.9 | / | -0.3 | 6.6 | 0.71
COc1ccc(CN2CSC(=S)N(Cc3ccc(OC)cc3)C2)cc1 | i | 12% | 0.2 | 3.2 | 1.2 | 7.0 | 0.63
CC(C)(C)c1ccc(OCc2ccc(C(=O)N/N=C/c3ccc([N+](=O)[O-])cc3)o2)cc1 | / | 0% | -4.5 | / | 1.3 | / | /
C=CCNC(=O)C1CC1(c1ccc(C)cc1)c1ccc(C)cc1 (stereo unspecified) | i | / | -1.7 | -1.0 | 0.9 | 0.6 | 0.64
COC(=O)C1=C(C)N(Cc2ccccc2)C(=S)N[C@H]1c1cccc(C(F)(F)F)c1 | i | / | 0.5 | -4.1 | / | 0.4 | /
O=C(NCCN1CCOCC1)c1cc(S(=O)(=O)NCCCN2CCCC2=O)ccc1Cl | / | -3% | 4.0 | / | -0.1 | 0.9 | 0.7
Cc1ccc(C)c(NC(=O)CN(C)C(=O)c2nn(C)c(=O)c3ccccc23)c1 | i | / | -2.6 | -3.1 | -2.6 | -0.4 | 0.64
O=C1c2ccccc2C(O)(c2ccccc2)N1C1CC1 (stereo unspecified) | i | 19% | 0.5 | -0.9 | 0.3 | 0.3 | 0.7
Cc1ncc(CO)c(/C=N/NC(=O)c2cc3c(s2)CCCC3)c1O | i | -10% | 8.4 | 13 | 50* | / | /
CN1C(=O)CC(N2CCC(c3nc4ccccc4[nH]3)CC2)C1=O (stereo unspecified) | i | 3% | -3.4 | -6.2 | ? | -1.4 | 0.75
CC1CCCCC1NC(=O)CSCC(=O)O (stereo unspecified) | / | / | -4.7 | / | 1.0 | 5.4 | 0.71
COc1ccccc1CN1C(=O)C(=O)N(Cc2cccc(C)c2)C1=O | i | / | -1.5 | -1.2 | 1.1 | 0.9 | 0.63
COc1ccc(/C=C/C(=O)NCC(=O)N/N=C/c2ccc(OC)cc2)cc1 | i | 4% | 1.7 | 0.3 | -0.1 | / | /
O=C(Cc1ccsc1)Nc1cc(F)ccc1F | i | -2% | 1.0 | 0.2 | -5.8 | 1.2 | 0.68
CC1(Oc2cccc(C#N)c2)CCN(Cc2csc3ccccc23)C1 (stereo unspecified) | i | / | -3.5 | 0.5 | / | / | /
COc1ccc(C2CC(=O)Nc3sc(=N)c4c(N)c(C#N)c(N)nc4c32)cc1OC (stereo unspecified) | / | -50% | 4.9 | / | ? | -112 | 0.66
COc1cccc(C(O)C2OC(=O)c3ccccc32)c1OC (stereo unspecified) | i | / | -1.2 | -1.1 | 8.2 | 1.8 | 0.69
Cc1ccc(NS(=O)(=O)c2cccc3nsnc23)cc1C | i | -1% | 0.3 | 8.3 | -3.5 | 1.7 | 0.71
COc1ccc2nc(Cl)cc(Cl)c2c1 | i | 0% | -2.4 | -2.2 | 0.2 | -1.9 | 0.73
O=C1c2cccnc2C(Nc2ccccc2Br)N1Cc1ccco1 (stereo unspecified) | i | 10% | 4.0 | 0.5 | -0.9 | 0.5 | 0.68
Cc1cc(Br)cn2c(Cc3ccccc3)c(-c3cccc(Cl)c3)nc12 | i | / | -6.0 | -0.4 | / | / | /
O=S1(=O)CCOC(CO)CN1Cc1ccc(Cl)c(Cl)c1 (stereo unspecified) | i | 1% | 0.8 | -1.5 | / | 7.2 | 0.71
O=C(Nc1cccc(S(=O)(=O)NCc2ccco2)c1)c1cccc(Cl)c1 | i | / | -0.1 | 0.0 | / | 1.1 | 0.69
O=C(NCc1ccccn1)c1ccc(OC2CCN(Cc3cccs3)CC2)cc1 | i | -8% | 2.7 | -1.4 | -1.3 | 0.4 | 0.73
S=C(NCCCN1CCOCC1)NN=C1c2ccccc2-c2ccccc21 | / | -1% | 7.2 | 22 | / | / | /
COc1ccccc1NS(=O)(=O)c1ccc(NC(=O)c2nc3nc(C)cc(C(F)F)n3n2)cc1 | / | 0% | 4.5 | / | 1.8 | 6.0 | 0.66
COc1cc(/C=C/c2nc3ccccc3c(=O)[nH]2)cc(Br)c1O | i | / | 35 | -2.0 | 1.4 | 5.8 | 0.65
Cc1ccc(-n2cccc2/C=C2\C(=N)N3N=C(c4ccco4)SC3=NC2=O)cc1 | i | / | -3.5 | -8.1 | / | 5.9 | 0.69
CC1(C(=O)NCc2ccc(F)cc2)Oc2ccccc2NC1=O (stereo unspecified) | i | 3% | 0.5 | -2.4 | -1.4 | 1.4 | 0.64
COc1ccc(CCNC(=O)c2c(C)nn(CC(C)C)c2Cl)cc1OC | i | / | -5.1 | -0.7 | 2.1 | -1.2 | 0.71
O=C(NCc1ccco1)/C(=C/C=C/c1ccccc1)NC(=O)c1ccco1 | i | 7% | 0.7 | 5.0 | 4.4 | 8.9 | 0.69
O=C(COC(=O)C1CCC(=O)N1)Nc1ccc(Oc2ccccc2)cc1 (stereo unspecified) | i | -3% | -0.1 | -1.2 | -5.2 | -4.5 | 0.66
O=C(Nc1cccc(F)c1)c1ccc(-c2ccccc2Cl)o1 | / | ? | 0.3 | / | 1.8 | 5.1 | 0.62
O=C(NNC(=O)c1ccccc1-n1cccc1)c1ccc(Cl)c(Cl)c1 | / | 96% | -1.9 | / | ? | 4.8 | 0.74
COc1ccc(NC(=O)/C(=C/c2cccs2)NC(=O)c2ccco2)cc1 | i | 2% | -2.2 | -0.1 | 13 | 12 | 0.64
O=C(CSc1ccc2nnc(CCNC(=O)c3ccccc3)n2n1)NCc1ccccc1 | i | / | -0.7 | -1.0 | 4.0 | 1.9 | 0.72
CCN(CC)CCNC(=O)C12CC3CC(C)(CC(C)(C3)C1)C2 | / | 0% | -1.3 | / | ? | -0.8 | 0.66
Cc1ccc(S(=O)(=O)c2nc(Nc3ccccc3)sc2Cl)cc1 | i | / | 1.1 | 2.4 | 0.7 | 2.5 | 0.65
O=c1c2sc3nc(N4CCOCC4)c4c(c3c2nnn1Cc1ccccc1)CCCC4 | / | -2% | -3.3 | / | -1.7 | -4.7 | 0.62
CC(O)(c1ccncc1)c1nc(-c2cccc(C(F)(F)F)c2)cs1 (stereo unspecified) | i | / | -0.8 | -10.0 | / | / | /
CC12CCC3C(C1)C(C(=O)O2)C(=O)OC3(C)C (stereo unspecified) | i | -3% | 3.3 | 0.5 | / | / | /
O=C(SCc1c(O)c2ccccc2oc1=O)c1ccccc1 | i | / | -1.7 | 0.5 | / | / | /
COCCCNc1nc2ccccc2nc1NS(=O)(=O)c1cccc(C)c1 | i | -8% | 4.8 | -2.6 | 2.0 | -60 | 0.66
Cc1cccnc1Sc1c([N+](=O)[O-])ncn1C | / | 12% | 1.5 | / | -1.6 | 8.6 | 0.73
COc1ccc(CCN2C(=O)CSC2=Nc2ccc(C(C)C)cc2)cc1OC | i | 1% | -1.9 | -1.6 | 1.3 | / | /
O=C(COC(=O)c1ccccc1)Nc1cc(S(=O)(=O)N2CCCCCC2)ccc1Cl | i | -5% | -3.3 | -7.6 | / | 4.0 | 0.72
CC1(C(=O)NCc2ccco2)Cc2c(-c3ccccc3)ccnc2O1 (stereo unspecified) | i | / | -0.5 | 2.7 | / | / | /
O=S(=O)(c1ccc(-c2ccon2)s1)N1CCN(c2ccncc2)CC1 | / | / | / | / | ? | 8.3 | 0.66

(further entries)
Compound | FGF22 binding | Vif TR-FRET | HNF4A DNA FP | MLL AF4-AF9 inh | RanGTP-Impb inh | UCH37 DUB inh | E coli growth
COCCN(C(=O)COC(=O)/C=C/c1ccc(Cl)c(Cl)c1)c1c(N)n(Cc2ccccc2)c(=O)[nH]c1=O | i | / | 3.8 | -1.8 | / | -0.9 | 0.73
Cc1ccc(N(CC(=O)NCc2ccccn2)S(=O)(=O)c2ccccc2)cc1C | i | 7% | 1.8 | 3.3 | 0.3 | 0.0 | 0.7
CCOCCCn1c(SCC(=O)Nc2ccccc2OC)nc2ccccc2c1=O | i | -1% | -1.7 | 4.0 | -6.2 | 1.1 | 0.66
CCOCc1c(C(=O)OCC(=O)/C(C#N)=C(\C)N)oc2ccccc12 | i | -8% | -0.1 | -2.5 | / | 2.1 | 0.67
COc1ccc(NC(=S)N2CCC(N(C)CC3CCCO3)CC2)cc1Cl (stereo unspecified) | / | / | -0.2 | / | -12 | 1.7 | 0.7
COc1ccc(S(=O)(=O)N2CCN(CC(=O)NCCc3cccs3)CC2)cc1 | i | -7% | -1.0 | 2.4 | / | 3.6 | 0.7
COc1cc(Cl)ccc1OCc1cc(C(=O)N2CCCC(OC)C2)no1 (stereo unspecified) | i | -2% | 0.5 | -1.3 | -0.5 | 3.9 | 0.69
Nc1nc(N)nc(-c2cccc(Cl)c2)n1 | i | / | 0.7 | -0.1 | / | 1.7 | 0.57
COc1c(C)cccc1C(=O)Nc1ccc(N2CCOCC2)c(Cl)c1 | / | 8% | -1.1 | / | -2.7 | 3.6 | 0.73

Full records from above. Order of values: FGF22 binding | Vif TR-FRET | HNF4A DNA FP | MLL AF4-AF9 inh | RanGTP-Impb inh | UCH37 DUB inh | E coli growth
Profile of `COCCN(C(=O)COC(=O)/C=C/c1ccc(Cl)c(Cl)c1)c1c(N)n(Cc2ccccc2)c(=O)[nH]c1=O` : i | / | 3.8 | -1.8 | / | -0.9 | 0.73
Profile of `CCOCCCn1c(SCC(=O)Nc2ccccc2OC)nc2ccccc2c1=O` : i | -1% | -1.7 | 4.0 | -6.2 | 1.1 | 0.66

Not all compounds are listed, so the mix of outcomes need not match the whole.
